Sfp PPTase inh = qHTS Assay for Inhibitors of Bacillus subtilis Sfp phosphopantetheinyl transferase (PPTase); Potency, µM, for the others: max response, negative = inhibition, actives largely listed as inhibitors; Biochemical Sfp PPTase activity, qHTS; AID 1490, 2009; 310,000 compounds, 3.5% hits; active = well fitted inhibition curve with a large enough effect; inconclusive = small, poorly fitted or top-dose-only effect, or another doubt; inactive = no such curve, though single readings can be large or run the other way;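 note: the enzyme is Sfp with the accession as filed and its product quenches rhodamine fluorescence; potency is the fitted concentration of half-maximal effect; 0% = enzyme reaction without inhibitor and -100% = no enzyme wells; top concentration of the series not given in the record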
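With Hepes-Na pH 7.6 buffer containing 10 mM MgCl2, Sfp (15 nM) modified BHQ-2-YbbR (12.5 uM) using rhodamine-CoA (5 uM). Two reads 30 minutes apart at 525/598 nm yielded each well's rate.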
D2 potentiator = Beta-Arrestin HTS for Positive Allosteric Modulators of the Human D2 Dopamine Receptor: Potentiators; D(2) dopamine receptor (Homo sapiens), P14416; DiscoveRx D2 beta-arrestin cells, luminescence, 90 min; 100% = 57 uM dopamine signal; potentiation, % (no concentration beside the values); 360,000 compounds, 0.23% hits; AID 624464, 2012; active = potentiation of 50% or more; inconclusive = 30% to 50%; inactive = 30% or less;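 note: compound concentration not given in the record; tested on top of an EC20 dose of dopamine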
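PathHunter beta-arrestin assay in DiscoveRx D2 cells. Compounds were added with an EC20 of dopamine (50 nM final) for 90 min at 37 deg C. Luminescence was read 1 h after detection reagent, with 57 uM dopamine as the EC100 control.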
D2 agonist = Beta-Arrestin HTS for Positive Allosteric Modulators of the Human D2 Dopamine Receptor: Agonists; activation, % (concentration not given with the values); DiscoveRx PathHunter D2 beta-arrestin, luminescence, 90 min; 100% = 57 uM dopamine signal; 360,000 compounds, 0.084% hits; in the data active = activation above about 40%; inconclusive = about 15% to 40%; inactive = below about 15%; note: the text of the record calls up to 30% inactive
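Agonist mode: compounds alone added to overnight-plated D2 PathHunter cells for 90 min at 37 C, with 57 uM final dopamine (EC100) defining full response. Beta-arrestin recruitment detected by chemiluminescent reagent, read after 1 h at ambient temperature.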
TRPV1 potentiator = HTS Assay for Compounds that Act as Potentiators of the Vanilloid Receptor 1; Transient receptor potential cation channel subfamily V member 1 (Homo sapiens), Q8NER1; TRPV1-expressing cells, Fluo-8 calcium influx, capsaicin EC20 potentiation; host cell line not named in the record; control for the full effect not named in the record; potentiation, % at 8.33 µM; 320,000 compounds, 0.02% hits; AID 540277, 2011; active means potentiation above 80%; inconclusive means 30% to 80%; inactive means below 30%; note: 0% is about no effect
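Cells expressing TRPV1 were dye-loaded with Fluo-8 and read kinetically: 10 s baseline, 3 min after compound (agonist portion), then 2 min after EC20 capsaicin (allosteric enhancer portion). Calcium-bound dye fluorescence at 480/520 nm.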
Six1-Eya2 blk = qHTS Assay for Inhibitors of the Six1/Eya2 Interaction; AlphaScreen GST-Six1/His-Eya2 binding, biochemical; active compounds read low; control for the full effect not named in the record; Homeobox protein SIX1 (Homo sapiens) + Protein phosphatase EYA2 (Homo sapiens), …; activity change, % (test concentration not listed); 360,000 compounds, 0.56% hits; in the data active = activity change below about -65%; inconclusive = about -30% to -65%; inactive = above about -30%; note: % is set by controls: 0 for no effect and ±100 for the full control effect
Target sequence (O00167 whole entry, looked up): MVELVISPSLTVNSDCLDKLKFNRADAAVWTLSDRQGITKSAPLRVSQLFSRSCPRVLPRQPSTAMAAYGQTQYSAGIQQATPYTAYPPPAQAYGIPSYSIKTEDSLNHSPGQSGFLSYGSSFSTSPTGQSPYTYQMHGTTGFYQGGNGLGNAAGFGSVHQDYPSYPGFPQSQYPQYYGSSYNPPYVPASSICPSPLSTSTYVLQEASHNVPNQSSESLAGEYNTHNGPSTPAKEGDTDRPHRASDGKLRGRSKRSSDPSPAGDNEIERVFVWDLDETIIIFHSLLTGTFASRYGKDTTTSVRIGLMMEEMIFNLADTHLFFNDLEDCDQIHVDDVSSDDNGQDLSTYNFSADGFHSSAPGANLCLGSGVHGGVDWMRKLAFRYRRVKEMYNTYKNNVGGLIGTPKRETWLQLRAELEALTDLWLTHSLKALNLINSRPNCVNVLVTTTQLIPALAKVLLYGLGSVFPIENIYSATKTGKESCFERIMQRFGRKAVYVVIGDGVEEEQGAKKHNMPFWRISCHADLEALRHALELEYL
Target sequence (Q15475 whole entry, looked up): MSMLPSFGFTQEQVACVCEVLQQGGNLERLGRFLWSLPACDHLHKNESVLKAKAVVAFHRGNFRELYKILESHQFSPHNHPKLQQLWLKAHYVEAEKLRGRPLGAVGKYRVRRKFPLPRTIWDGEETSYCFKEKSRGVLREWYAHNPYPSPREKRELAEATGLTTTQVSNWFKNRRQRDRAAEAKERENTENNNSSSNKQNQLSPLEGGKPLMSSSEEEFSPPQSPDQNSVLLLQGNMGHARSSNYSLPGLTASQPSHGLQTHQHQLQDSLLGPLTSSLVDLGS
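Six1/Eya2 binding was read as AlphaScreen signal after compounds were pinned into GST-Six1 plus His-tagged Eya2 (5X stock 250/500 nM) in pH 8.0 Tris/NaCl/TCEP buffer, beads added, then incubated 1 h, 37 C, dark.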
CtBP-E1A blk = qHTS Assay for Inhibitors of the CtBP/E1A Interaction | AlphaScreen GST-E1A/His-CtBP binding, 1536-well; active compounds read low; control for the full effect not named in the record | 340,000 compounds, 0.49% hits | AID 651724, 2012 | activity change, % (no concentration beside the values); in the data active means activity change below about -65%; inconclusive means about -30% to -65%; inactive means above about -30%; note: % is set by controls: 0 for no effect and ±100 for the full control effect
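AlphaScreen with 125 nM GST-E1A and 125 nM His-CtBP (5X stocks) in Tris pH 8.0, 300 mM NaCl, BSA, Tween 20, TCEP. Compounds preincubated 2 h at 37 deg C, then glutathione donor/nickel acceptor beads added for 1 h at 37 deg C in dark.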
PINK1 modulator = A Quantitative High throughput Screen to Identify Chemical Modulators of PINK1 Expression; PINK1 immunofluorescence, high-content cytometry, 24 h; Potency, µM (titrated, usually from 76.6 µM), without a hit: at the top dose activation (PINK1 increase), hits mostly activators; 410,000 compounds, 0.2% hits; AID 624263, 2012; active = well fitted activation curve with a large enough effect; inconclusive = small, poorly fitted or top-dose-only effect; inactive = flat fitted curve, though single readings scatter; cell line not stated here;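 note: potency is the fitted concentration of half-maximal effect; % of control where 0% means no effect; nearly all actives have a fitted effect of over 65% in size; a mitochondrial uncoupler was the plate control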
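Readout is PINK1 immunofluorescence, quantified alongside mitochondrial, cell and nuclear markers by laser-scanning microplate cytometry. Cells from a stable line were exposed to compound titrations (5 concentrations) for 24 hours, with CCCP controls.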
The depositor's hits bear a star; ? = inconclusive; · = no result given; & = joins results of further samples; [ ] = remark or other dose.

SMILES | Sfp PPTase inh | D2 potentiator | D2 agonist | TRPV1 potentiator | Six1-Eya2 blk | CtBP-E1A blk | PINK1 modulator
CCn1c(Cc2ccccc2)nnc1SCC(=O)NC(C)(C)C | 2.3% | -1.3 | -1.7 | -4.8 | 0.0 | 8.2 | 9.1%[38.3 µM]
CCCc1ccc(-c2ccc(-c3noc(-c4ccncc4)n3)cc2)nc1 | 19.7% | -0.9 | 2.0 | -33.0 | 5.9 | 7.0 | 9.3%
O=C(NCc1ccc2c(c1)OCO2)c1cnc2n(c1=O)CCS2 | -10.1% | -3.9 | 0.7 | 5.0 | -7.9 | -9.5 | 1.8%
Cc1ccc(NC(=O)N2CCC(C(=O)Nc3ccc(C)cc3C)CC2)cc1 | 8.2% | -6.0 | 0.7 | -21.5 | -3.3 | 3.2 | 5.4%
CN(C)CCCN(C(=O)c1ccc(S(=O)(=O)N2CCOCC2)cc1)c1nc2ccc(F)cc2s1 | 13.5% | -12.3 | -4.7 | -1.0 | -22.0 | -1.1 | 0.1%
COC(=O)Cn1ncc(N2CC(C)OC(C)C2)c(Cl)c1=O (centres undefined) | 22.2% | -6.3 | 1.2 | ? | -2.3 | 6.6 | 0.3%
CC(C)CN(C(=O)COC(=O)CNC(=O)c1ccc(Cl)cc1)C1CCS(=O)(=O)C1 (centres undefined) | -6.7% | -6.0 | -2.4 | 0.5 | 9.4 | 0.0 | 4.3%
CCCc1cc(=O)n2[nH]c(C)c(-c3ccc(OC)cc3)c2n1 | -6.5% | -6.0 | -2.0 | 12.2 | -4.0 | -1.5 | -4.1%
Cc1cccc(/C(N)=N/OC(=O)CCCN2C(=O)c3ccccc3C2=O)c1 | -1.7% | -23.7 | -0.8 | -22.9 | 19.7 | 22.0 | 2.0%
NC(=O)COC(=O)c1cc(=O)[nH]c2ccccc12 | 11.5% | -4.8 | 2.6 | 4.5 | -1.2 | -3.7 | 0.5%
CC(Sc1nc2ccccc2[nH]1)C(=O)NC1CCCCC1C (centres undefined) | 18.1% | -6.6 | -5.4 | 0.8 | 6.9 | 2.4 | -1.2%
CCOC(=O)C1CCN(c2cc(=O)n(-c3ccccc3Cl)c(=O)[nH]2)CC1 | 3.0% | -9.1 | -1.0 | 29.2 | 3.6 | 28.5 | 6.9%[38.3 µM]

Single records, from the list above. Values in the order: Sfp PPTase inh	D2 potentiator	D2 agonist	TRPV1 potentiator	Six1-Eya2 blk	CtBP-E1A blk	PINK1 modulator
CN(C)CCCN(C(=O)c1ccc(S(=O)(=O)N2CCOCC2)cc1)c1nc2ccc(F)cc2s1 is listed as 13.5%	-12.3	-4.7	-1.0	-22.0	-1.1	0.1%
CCCc1ccc(-c2ccc(-c3noc(-c4ccncc4)n3)cc2)nc1 is listed as 19.7%	-0.9	2.0	-33.0	5.9	7.0	9.3%
CCCc1cc(=O)n2[nH]c(C)c(-c3ccc(OC)cc3)c2n1 is listed as -6.5%	-6.0	-2.0	12.2	-4.0	-1.5	-4.1%

Carrying on:
SMILES | Sfp PPTase inh | D2 potentiator | D2 agonist | TRPV1 potentiator | Six1-Eya2 blk | CtBP-E1A blk | PINK1 modulator
Cc1cc(NC(=O)CSc2nc(-c3cccnc3)ccc2C#N)no1 | -15.5% | -19.8 | -0.6 | 7.6 | -7.4 | -7.3 | 4.4%
Cc1cccc(C(C(=O)NC2CCCCC2)N(C(=O)c2csnn2)C2CC2)c1 (centres undefined) | 11.6% | -4.7 | -2.3 | -11.3 | -3.6 | 0.9 | 1.2%
CC(C)NC(=O)CCN1C(=O)c2ccccc2Sc2ncccc21 | 17.1% | -9.4 | -2.3 | -13.4 | 3.1 | -0.2 | -0.6%&3.2%
CC(=O)c1cc(C(=O)N2CCc3c([nH]c4ccccc34)C2CC(C)C)[nH]n1 (centres undefined) | 1.5% | -2.1 | 5.0 | 7.3 | -7.0 | 2.9 | 1.6%
Cc1ccc(/C=C/C(=O)Nc2cc(=O)n(C)c(=O)n2C)o1 | -81.2% | -13.6 | -1.9 | 2.9 | -15.1 | 0.3 | 1.9%
Clc1ccc(-c2ccc(/C=N/Nc3cc(N4CCOCC4)nc(N4CCOCC4)n3)o2)cc1 | 8.3% | -20.5 | -1.7 | 11.3 | 4.5 | -0.4 | 5.9%
COc1cc(C(=O)N/C(=C\c2cn(C)c3ccccc23)C(=O)NCCN2CCOCC2)cc(OC)c1OC | -8.5% | -23.3 | -4.6 | 2.6 | -3.8 | -18.1 | -0.6%
O=[N+]([O-])/C(C=Nc1ccccc1O)=C\Nc1ccccc1O | -12.6% | 14.8 | -0.1 | -6.2 | -7.3 | -0.1 | 1.0%
O=C(Cc1cccs1)NCCc1cn2ccccc2n1 | 4.2% | -4.1 | -2.5 | 3.8 | 2.7 | 5.6 | -0.4%
O=C(O)c1ccc(CSc2nnnn2C2CCCCC2)cc1 | 5.2% | -9.1 | -2.0 | 6.1 | -0.9 | 4.5 | -2.5%
Cc1cc(C)nc(SCC(=O)NC2=NC(=O)C(C)S2)n1 (centres undefined) | 22.4µM* | 9.0 | 0.9 | -9.7 | 3.4 | 3.5 | -5.4%[38.3 µM]
COc1ccc(-c2nn(-c3ccccc3)cc2C(=O)N2CCN(S(=O)(=O)c3cccc(F)c3)CC2)cc1 | · | -3.7 | -1.2 | -11.3 | -8.4 | -8.2 | 0.4%
C=CCOc1c(Cl)cc(CNn2cn[nH]c2=S)cc1OC | ? | -11.3 | 5.9 | -4.1 | 0.7 | · | -1.4%
Cc1nn(C(=O)c2ccco2)c(C)c1Sc1ccc([N+](=O)[O-])cc1 | 7.4% | -11.3 | 0.8 | 16.5 | -0.2 | 7.9 | 1.7%
CC(C(=O)N1CC2(C)CC1CC(C)(C)C2)N1C(=O)c2ccccc2C1=O (centres undefined) | 9.2% | -2.7 | -3.0 | -3.2 | 7.2 | 2.8 | -1.1%
COc1cc(NC(=O)c2ccc(Br)o2)c(C(=O)O)cc1OC | -13.8% | 6.7 | -5.3 | -10.6 | -10.6 | 8.6 | -1.2%
O=C(NNC(=O)c1ccco1)c1ccco1 | · | -4.6 | -0.1 | · | 6.7 | -16.5 | 1.3%
COc1ccc(-c2ccc3c(c2)C2CC3CCN2CCC#N)cc1 (centres undefined) | · | -1.0 | 2.7 | · | -6.9 | -6.1 | -0.6%
C=CCN1C(=O)c2ccc(C(=O)N(C)CC(=O)Nc3cccc(F)c3)cc2C1=O | 15.0% | -1.0 | 2.1 | -7.4 | 2.6 | -4.6 | -0.6%
Cc1ccc(NC(=S)NNC(=O)c2ccco2)cc1 | -25.6% | -16.8 | -1.9 | -24.6 | 2.9 | 0.5 | 17.1%[38.3 µM]
Cc1cc(O)cc2c(=O)c3ccccc3sc12 | 6.5% | -2.0 | 2.6 | 14.5 | -1.9 | · | 1.0%
COc1cc(/C=C/C(=O)OCC(=O)NC(=O)NC2CCCCC2)ccc1OC(F)F | 19.6% | -11.1 | -3.2 | 8.6 | -1.9 | -6.5 | 0.4%
CN(C)c1ccc(C(O)P(=O)(OCc2ccccc2)c2ccc(N(C)C)cc2)cc1 (centres undefined) | -7.1% | -4.4 | -3.6 | 13.7 | -17.9 | -21.1 | -1.8%
COc1cccc(CC(=S)N2CCOCC2)c1 | -6.3% | -3.3 | -4.1 | -6.3 | 0.1 | -0.2 | -1.1%
Cc1cc[n+](-c2nc([O-])sc2/C=N/Nc2ccc([N+](=O)[O-])cc2)cc1 | 4.0% | -7.5 | 0.2 | -2.3 | -5.8 | -4.1 | 1.3%[38.3 µM]
CCCCN(C)C(=O)c1ccc(Nc2nc(C(N)COCc3ccccc3)cs2)nc1 (centres undefined) | · | -4.7 | -2.0 | · | ? | ? | 3.1%
Cc1nc2ccc(C(=O)Nc3cccc([N+](=O)[O-])c3)cc2s1 | 13.6% | -13.0 | -0.1 | -2.4 | -11.0 | -2.7 | 1.3%
O=C(CCCCCN1C(=O)[C@@H]2Cc3ccccc3CN2C1=O)NCCc1ccccc1 | 12.8% | -5.6 | 0.5 | -8.7 | 9.8 | 6.3 | 0.2%
O=C(NCC1CCCO1)c1cc(Br)c(Br)s1 (centres undefined) | 10.1% | -14.5 | -5.0 | -7.4 | -0.2 | -7.6 | 0.4%
O=C(Oc1cccc(C(=S)N2CCOCC2)c1)c1ccccc1 | 56.2µM* | -5.1 | -4.4 | 18.9 | -0.8 | -2.3 | 2.9%
CSc1ncccc1C(=O)Nc1cccc(S(=O)(=O)N2CCCCC2)c1 | · | -5.8 | 5.4 | -3.4 | -5.8 | · | 5.1%
COCCn1c(SCC(=O)Nc2ccccc2F)nc2c(c1=O)SCC2 | -2.1% | 2.1 | 9.0 | -5.8 | -6.6 | 4.4 | 0.2%
Cc1oc2c(C)c3oc(=O)c(CCC(=O)O)c(C)c3cc2c1-c1ccccc1 | 6.3% | -5.2 | 1.8 | -15.9 | -29.2 | · | -1.5%
O=C(c1ccncc1)N(c1ccc(N2CCOCC2)cc1)C(c1ccccc1)c1nc2ccccc2[nH]1 (centres undefined) | · | 10.6 | 10.0 | · | -7.2 | -0.4 | 8.1%
Cc1ccc(C)c(C(=O)Nc2nc3ccccc3[nH]2)c1 | 10.6% | -8.0 | -1.3 | -20.8 | -2.5 | -11.3 | 3.0%
CCc1nc2ccccc2n1CC(=O)OCC(=O)N(CC(C)C)c1c(N)n(Cc2ccccc2)c(=O)[nH]c1=O | · | 2.9 | 4.5 | -6.1 | -0.5 | 2.5 | -0.4%
O=c1[nH]c(SCc2ccccc2Cl)nc2[nH]ncc12 | 4.4% | -7.6 | -2.5 | -2.3 | 1.9 | -12.5 | 1.8%
O=C(Cc1cccc2ccccc12)N/N=C/c1ccc(F)cc1 | ? | 2.7 | -0.7 | -2.6 | 5.3 | 10.3 | ·
CCOc1ccccc1NC(=O)c1cc(S(=O)(=O)N2CCC3(CC2)OCCO3)ccc1F | 15.4% | -1.5 | 0.4 | 2.9 | 1.1 | 15.0 | -2.2%[38.3 µM]

Assay outcomes deposited in PubChem BioAssay by National Center for Advancing Translational Sciences (NCATS).
